Calb FLC: C. albicans growth modulation with fluconazole; C. albicans CaCi-2 (fluconazole-resistant clinical isolate) + fluconazole, Alamar Blue growth, 48 h; hit rate 0.57% among 300,000; AID 1979; growth inhibition, % (concentration not given with the values);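 active means most replicates above 75%; inconclusive means exactly half above 75%; inactive means most below 75%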;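 further: all wells also contain fluconazole at 8 µg/ml as a sub-toxic cotreatment; 0% = median of DMSO wells and 100% = median of geldanamycin control wells; wells of about 8 µL received 7.5 nL stock; the first replicate is given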
Beta cell apopt: beta cell apoptosis inhibition; INS-1E cytokine-induced death, ATP luminescence, 48 h; percent of positive-control rescue, neutral wells zero; protection from apoptosis, % (concentration not given with the values); hit rate 0.8% among 300,000; AID 435005;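 active means all replicates at 75% or more, or half of them and the mean; inconclusive means half reach 75% but not the mean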;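 further: 0% = cytokine-treated negative control wells and 100% = positive control rescue; higher means more ATP so stronger rescue from cytokine killing; wells of about 40 µL received 100 nL stock; the first replicate is given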
T cruzi inh: T. cruzi replication inhibition | T. cruzi beta-gal in NIH3T3, luminescence, 90 h | inhibition, % (test concentration not listed) | hit rate 1.4% among 300,000;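 active means mean inhibition across valid replicates above about 55%, limit read from the data; inconclusive means mean below that limit but half or more replicates reach it; inactive means mean below it, under half of replicates reach it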;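 further: signal also drops with host cell toxicity which is not excluded here; 0% = plate median of DMSO wells and 100% = zero luminescence signal; higher percent means less beta-gal luminescence so fewer parasites; stock transfer was 50 nL into about 50 µL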
Ecoli rRNA inh: inhibits bacterial ribosomal RNA function over humanized ribosomes. E. coli WT GFP vs humanized-ribosome RFP mutants, fluorescence, 24 h; stronger effect = lower value; DMSO median 0, no signal -100. GFP signal change (wild-type ribosome), % (concentration not given with the values). hit rate 1.6% among 350,000;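 active means significant combined selectivity score with lowered wild-type GFP, culture density cut under 30%, mutant RFP and density less affected; inactive means any of these conditions unmet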; further: one replicate is shown; some compounds called inactive have numbers as strong as hits
ALR H2O2 inh: inhibitors of human sulfhydryl oxidase ALR; hit rate 3.8% among 290,000; P55789; inhibition, % (no concentration beside the values); purified ALR, DTT oxidation, H2O2 HRP-luminol luminescence; AID 485317;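 active means mean and each replicate at 75% or more; inconclusive means only one of the two met; inactive means neither met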;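 further: stock transfer was 7.5 nL into about 7.5 µL; 0% = neutral wells and 100% = wells with inactivated enzyme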
Target sequence (P55789 whole entry, looked up): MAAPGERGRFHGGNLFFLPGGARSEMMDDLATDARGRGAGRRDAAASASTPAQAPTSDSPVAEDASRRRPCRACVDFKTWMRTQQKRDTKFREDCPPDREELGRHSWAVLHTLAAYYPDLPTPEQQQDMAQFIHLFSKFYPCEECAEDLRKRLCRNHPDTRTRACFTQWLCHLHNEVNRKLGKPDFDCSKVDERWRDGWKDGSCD
MLL AF4-AF9 inh: MLL-AF4/AF9 protein interaction inhibition; AID 651704; AlphaScreen, biotin-AF4 peptide binding to FLAG-AF9; inhibition, % at 10 µM; hit rate 0.47% among 350,000;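 active means every replicate reaching a set inhibition limit, whatever the replicate mean, cut at about 25% in these data; inconclusive means mean inhibition reaches that limit but some replicates miss it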;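 further: 0% = plate neutral control median and 100% = total signal loss; the record names both 10 and 1 µM as test concentration; the first replicate is given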
Target sequence (P42568 whole entry, looked up): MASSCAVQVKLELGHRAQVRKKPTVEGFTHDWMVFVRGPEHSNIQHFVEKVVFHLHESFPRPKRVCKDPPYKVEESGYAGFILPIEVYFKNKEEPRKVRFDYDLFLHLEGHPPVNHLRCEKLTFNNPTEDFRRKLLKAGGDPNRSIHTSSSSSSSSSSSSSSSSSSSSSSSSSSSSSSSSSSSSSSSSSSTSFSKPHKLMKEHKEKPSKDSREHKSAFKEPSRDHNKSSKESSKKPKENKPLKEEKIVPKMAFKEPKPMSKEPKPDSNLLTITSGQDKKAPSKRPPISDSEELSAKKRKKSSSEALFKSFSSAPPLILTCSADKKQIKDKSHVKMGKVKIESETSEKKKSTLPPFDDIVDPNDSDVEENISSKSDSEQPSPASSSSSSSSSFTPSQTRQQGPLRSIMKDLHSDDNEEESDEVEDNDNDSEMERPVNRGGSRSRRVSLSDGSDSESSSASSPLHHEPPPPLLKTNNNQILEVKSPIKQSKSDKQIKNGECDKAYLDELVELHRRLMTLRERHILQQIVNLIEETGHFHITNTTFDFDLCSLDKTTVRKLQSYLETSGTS
FGF22 binding: shifts melting point of recombinant human FGF22; Q9HCT0; recombinant FGF22 thermal shift, SYPRO orange fluorescence; percent of sucrose octasulfate shift, DMSO zero; calls only at 9.99 µM; hit rate 1.5% among 340,000;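 active means melting point raised past a set limit in the mean and every replicate; inconclusive means no clear call; three in four hits are not shown here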
Target sequence (Q9HCT0 whole entry, looked up): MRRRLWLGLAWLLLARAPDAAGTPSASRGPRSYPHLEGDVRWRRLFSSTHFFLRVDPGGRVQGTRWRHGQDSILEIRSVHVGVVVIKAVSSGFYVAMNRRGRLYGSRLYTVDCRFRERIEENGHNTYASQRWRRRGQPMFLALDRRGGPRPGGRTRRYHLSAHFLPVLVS
RanGTP-Impb inh: disruptors of Ran-importin-beta complex formation – biochemical, FRET, CFP-Ran, YFP-importin-beta, homogeneous, primary screen; cell-free CFP-Ran/YFP-importin-beta FRET ratio; inhibition, % (no concentration beside the values); AID 2216; hit rate 1.1% among 300,000;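 active means most replicates above 15%; inconclusive means exactly half above 15%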;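 further: 0% = DMSO wells and 100% = Ran loaded with GDP instead of GTP; wells of about 40 µL received 100 nL stock; the first replicate is given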
Ecoli rRNA inh OD600: also measured in Ecoli rRNA inh; calls as there; OD600 change, %; measured here: OD600 growth;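 optical density of the mix in the first replicate; 0 = DMSO median and -100 = no signal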
Ecoli rRNA inh RFP: also measured in Ecoli rRNA inh; calls as there; RFP signal change, %; measured here: RFP humanized mutant strains;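 first replicate; 0 = DMSO median and -100 = no signal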
Starred values were filed as active, the others as inactive; i = inactive; ? = inconclusive; · = no result given.

SMILES,FGF22 binding,Calb FLC,RanGTP-Impb inh,MLL AF4-AF9 inh,Beta cell apopt,ALR H2O2 inh,T cruzi inh,Ecoli rRNA inh RFP,Ecoli rRNA inh,Ecoli rRNA inh OD600
COc1cc(N(C(=O)Cc2cccs2)C(C(=O)NC2CCCCC2)c2cccc(OC)c2OC)ccc1-n1cnnn1 (stereo not given),·,3,3.4,·,8,-1,10,·,·,·
Cc1ccc(S(=O)(=O)N2CCN(c3ncnc4c3cnn4-c3ccccc3)CC2)cc1,·,-18,-2.7,·,-3,-6,-10,·,·,·
COc1ccc(CCNC(=O)c2cnn3ccccc23)c(OC)c1OC,i,-1,-2.1,1.3,-10,-1,0,-1.1,-5,5
c1ccc(-c2cc(-c3nnc4n3N=C(c3ccc5ccccc5c3)CS4)[nH]n2)cc1,·,5,-2.3,·,11,-6,59*,·,·,·
CCOc1ccccc1C(=O)NCC(=O)O,i,-3,1.2,0.3,-4,10,-8,·,·,·
O=C(O)Cn1cc(C(=O)c2ccco2)c2ccccc21,·,0,2.0,·,-5,-3,-7,·,·,·
Cc1ccc(NC(=O)CSc2nc(=O)n(CCN(C)C)c3c2CCCC3)c(C)c1,i,2,2.2,1.8,·,6,21,-1.5,4,3
Cc1c(NC2=CC(=O)CC(C)(C)C2)c(=O)n(-c2ccccc2)n1C,i,27,-1.3,-2.6,0,10,2,0.2,15,13
COc1ccccc1N1CCN(CCCNC(=O)C2CCCN(c3ncnc4c3nc3n4CCCCC3)C2)CC1 (stereo not given),i,-10,-2.8,16,5,5,25,-0.4,2,2
Cc1cc([N+](=O)[O-])cc2c1-c1ncccc1C2=Nc1ccccc1,·,34,-1.2,·,-8,-3,-3,·,·,·
O=c1c2cc([N+](=O)[O-])ccc2nc(CN2CCN(c3ccccn3)CC2)n1-c1ccccc1F,i,14,-1.0,-5.4,5,1,5,-5.5,16,1
NS(=O)(=O)c1ccc(CCNC(=O)c2coc3ccccc3c2=O)cc1,i,17,-1.5,-0.3,·,13,-12,0.7,18,10
OC1(CNCc2cn[nH]c2-c2cc3ccccc3o2)CCCCC1,i,-20,1.6,1.1,1,-8,1,1.9,11,-1
COc1cc(/C=N/NC(=O)c2cccc([N+](=O)[O-])c2)ccc1O,i,2,-0.1,-1.6,-1,99*,2,-1.8,6,4
CCOC(=O)N1CCN(C(=O)CSc2ccc(-c3ccc(OC)c(OC)c3)nn2)CC1,i,-2,0.4,-0.3,-6,·,-2,-2.1,-14,-29
Cc1ccc(NC(=S)N2CCN(Cc3ccccc3)CC2)cc1,i,-19,-0.2,2.4,-7,-5,-24,2.0,-12,-16
O=C(CSCc1ccc(Cl)cc1)N1CCOCC1,i,-4,-2.7,?,-4,2,-18,0.0,5,12
O=C(CN(C(=O)CCC(=O)Nc1nccs1)c1cccc(C(F)(F)F)c1)NCC1CCCO1 (stereo not given),i,2,4.2,1.3,0,·,2,-0.4,1,15
COc1ccc2nc(/N=C/c3c(C)[nH]n(-c4ccc(C)cc4)c3=O)sc2c1,i,-2,1.1,3.1,20,-16,-1,-7.4,-1,-5
CC(C)(C)c1ccc(C(=O)NCC(=O)N/N=C/c2cccs2)cc1,i,1,-2.9,2.6,-1,-2,-17,5.6,1,-13
O=C(COC(=O)C1CCC1)Nc1ccccc1Sc1ccccc1,·,19,-2.6,·,-12,3,2,·,·,·
CCn1c(CNc2ccccc2Cl)nnc1SCCN1CCCCC1,·,-14,0.6,·,0,-4,13,·,·,·
COc1ccc(CCNC(=O)CCNC(=O)c2ccc([N+](=O)[O-])cc2)cc1,i,-3,9.1,0.3,-12,·,0,-0.2,9,8
CC(C)OCC1CC(CC(=O)NC(=S)Nc2cccc([N+](=O)[O-])c2)C(=O)O1 (stereo not given),i,-9,-1.1,5.9,-4,·,2,-2.9,2,6
COc1ccc(N2CC(C(=O)N/N=C/c3cccs3)CC2=O)cc1 (stereo not given),i,7,-4.2,-0.7,3,18,-5,3.8,14,4
CC(C)CCNC(=O)Cn1c(NCCC(C)C)nc2c1c(=O)n(C)c(=O)n2C,·,-1,2.9,·,-9,2,-19,·,·,·
CN(C)S(=O)(=O)N1CCN(C(=O)c2cccc(Br)c2)CC1,·,6,?,·,-4,-5,-13,·,·,·
COc1ccc(-n2c(C)nc3c(cnn3-c3ccc(Cl)cc3)c2=O)cc1,·,11,-1.3,·,33,-3,9,·,·,·
O=c1[nH]c(/C=C/c2ccccc2Cl)c([N+](=O)[O-])c(=O)[nH]1,i,4,0.3,2.8,·,1,-20,-7.8,-24,-30
O=C(NCc1ccccc1)C(=O)NCC1COc2ccccc2O1 (stereo not given),·,0,4.8,·,-5,-4,-55,·,·,·
C=CCOc1ccccc1CN1CCCN(C)CC1,i,-10,1.5,3.7,-6,-4,4,2.9,16,24
O=C(Nc1ccccc1C(F)(F)F)c1cc(-c2ccc(O)cc2)on1,·,-17,1.0,·,10,3,·,·,·,·
COc1ccccc1Nc1nc(N)nc(CN2CCN(Cc3ccccc3)CC2)n1,·,-18,0.5,·,2,-1,5,·,·,·
CCn1cc(C(=O)N(CCC(C)C)c2c(N)n(Cc3ccccc3)c(=O)[nH]c2=O)c(=O)c2ccc(C)nc21,i,0,-2.6,3.1,-1,-7,-11,-2.4,13,0
COc1ccc(C2(c3ccc(OC)cc3)NC(=O)N(CC(=O)Nc3cc(C)on3)C2=O)cc1,i,·,·,0.4,-3,0,·,6.4,0,-7
CC(C)(C)c1ccc(S(=O)(=O)N2CCC(CO)(CC3CCCCO3)CC2)cc1 (stereo not given),i,-4,2.0,0.1,5,-5,9,-0.1,-14,-12
N/C(Cc1ccc([N+](=O)[O-])cc1)=N\OC(=O)CC1CCCCC1,·,10,-1.4,·,-6,14,-8,·,·,·
COc1ccc(N2C(=O)C3CCCN3C2=S)cc1 (stereo not given),i,-3,3.2,-0.1,·,-2,-12,-3.8,2,15
Cc1ccc(S(=O)(=O)N2CCN(CC(=O)Nc3ccc(N4CCOCC4)cc3)CC2)cc1C,i,1,0.2,15,3,36,2,0.3,-3,-2
O=C(Nc1ccc(S(=O)(=O)N2CCCC2)cc1)C1CC(=O)N(CCc2ccc(F)cc2)C1 (stereo not given),i,·,·,-7.5,-6,-3,·,2.5,-1,-23
CCCn1c(N)c(N(CCOC)C(=O)c2ccc(N(C)S(=O)(=O)c3ccc(C)cc3)cc2)c(=O)[nH]c1=O,i,5,-0.2,-5.4,-6,·,-7,1.5,4,2
CC(C)NC(=O)CSc1nc(N)c(NC(=O)c2ccccc2F)c(=O)[nH]1,i,-1,5.8,-1.6,-1,-46,-15,-1.9,18,10
O=C(CSc1ccc2nnc(-c3cccnc3)n2n1)Nc1ccccc1,i,-3,0.6,0.2,6,3,-5,-0.4,3,8
CCN1CCN(c2cc(C)c3cc(NC(=S)NCc4cccs4)ccc3n2)CC1,i,-7,2.6,30*,2,-6,44,5.4,-7,-11
CCOc1ccc(N(C)S(=O)(=O)c2cc(-c3cc(C)no3)ccc2C(C)C)cc1,i,20,2.2,-12,63,-6,46,-0.8,6,12
Cc1ccc(N(CC(=O)NC(C)C)C(=O)CCC(=O)Nc2nccs2)cc1,i,-2,-4.0,-1.5,-7,·,-2,14,8,12
Cc1ccc(NC(=O)CSc2nnc(C)c(=O)[nH]2)cc1C,i,-6,-1.0,-2.6,-3,95*,3,-1.6,-2,-2
CCN(CC)c1ccc(CN(C(=O)c2cccs2)C2CCS(=O)(=O)C2)cc1 (stereo not given),i,·,1.4,6.1,5,99*,14,-1.8,-2,9
Cn1c(O)c(C2=c3ccccc3=NC2=O)sc1=Nc1ccc(Cl)cc1,·,7,1.7,·,11,7,?,·,·,·
Cc1cc(CNC(=O)c2cccc([N+](=O)[O-])c2C)c2ccccc2n1,i,-1,-7.0,0.7,19,·,20,-0.6,-8,-8

(listing goes on)
SMILES,FGF22 binding,Calb FLC,RanGTP-Impb inh,MLL AF4-AF9 inh,Beta cell apopt,ALR H2O2 inh,T cruzi inh,Ecoli rRNA inh RFP,Ecoli rRNA inh,Ecoli rRNA inh OD600
COc1ccc2c(c1)CC/C(=C\c1ccc(C)o1)C2=O,i,-4,-4.4,17,-11,-27,4,2.1,-5,-4
CCOc1ccc(NC(=O)CN2C(=O)S/C(=C/c3cccn3C)C2=O)cc1,i,-31,16*,-1.5,-5,3,6,5.4,23,13
Cc1c(NC(=O)C2Cc3ccccc3CN2C(=O)c2ccco2)c(=O)n(-c2ccccc2)n1C (stereo not given),·,-7,0.5,·,-8,-4,-5,·,·,·
CC(C)N1CCc2c(sc(NC(=O)c3ccco3)c2C(N)=O)C1,i,8,101*,0.1,-2,19,19,5.4,14,12
Cc1ccc(CN(C(=O)COc2ccc([N+](=O)[O-])cc2)C2CCS(=O)(=O)C2)o1 (stereo not given),i,-1,23,1.4,-9,5,12,-0.1,0,9
Cc1ccc(O)c(CNc2ccccn2)c1,·,-5,?,·,1,10,4,·,·,·
COc1ccc(N/C=C/C(=O)c2ccccc2)cc1,i,-56,-3.1,8.5,3,-6,0,1.6,7,10
O=C(Nc1ncc2c(n1)-c1ccccc1OC2)c1ccc(F)cc1,i,-5,-0.4,-0.2,4,1,16,0.4,14,3
Nc1ccc(-c2nnc(-c3ccccc3)o2)cc1,i,-1,3.6,-0.9,6,36,2,-3.5,7,3
COC(=O)c1cc(S(=O)(=O)Nc2nn(C)c3ccccc23)oc1C,i,11,4.7,-3.4,-4,-1,-13,-2.3,-2,-12
CN(Cc1ccccc1)C(=O)CCCn1c(=O)[nH]c2cc(Cl)ccc2c1=O,·,2,0.9,·,·,-31,11,·,·,·
CC(=O)NC12CC3CC(C1)CC(C(=O)N(C)CC(=O)Nc1cccc(F)c1)(C3)C2,i,·,·,-0.7,4,-11,·,4.0,10,6
CCC1(c2ccc(Cl)cc2)NC(=O)N(CC(=O)N2CCN(C(=O)c3ccco3)CC2)C1=O (stereo not given),i,·,·,-1.8,1,-1,·,0.1,6,6
Cc1ccc(OCc2cn3cccnc3n2)cc1,·,-1,-1.5,·,1,·,-20,·,·,·
CCC1S/C(=N\S(=O)(=O)c2cccs2)N(C2CCCCC2)C1=O (stereo not given),·,-4,-0.1,·,-10,-12,-6,·,·,·
CS(=O)(=O)c1ccc2nc(NC(=O)CCS(=O)(=O)c3ccccc3)sc2c1,·,8,-0.1,11,-5,0,-2,2.8,-1,2
O=C(CCS(=O)(=O)c1ccccc1)N1CCOCC1,i,0,-1.5,-7.6,8,·,-10,0.9,21,8

The list is partial. The share of hits here may be higher or lower than overall.
